# Source: PubChem (Fisher Drug Discovery Resource Center)
# NPYLR7 ag – mosquito NPYLR7 agonism; hit rate 0.15% among 270,000; activation, % at 10 µM; HEK293T NPYLR7/Galpha15, GCaMP6s calcium fluorescence; AID 1259423; in the data active = activation above about 40%;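 note: 0% = vehicle and 100% = reference agonist at the receptor; some compounds past the cut are filed as inactive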
# NPYLR7 ag max-min – further read-out of NPYLR7 ag, marked with its call; activation, %; measured here: Max-Min RFU normalised activation; some inactives read as strong as hits;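 span of the calcium signal over five minutes; 0% = vehicle and 100% = native peptide agonist; compound fluorescence can raise it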
# Starred values were filed as active, the others as inactive. Some of the compounds tested (hit frequency here may not be typical).
# Results follow in this order: NPYLR7 ag | NPYLR7 ag max-min
- CCOc1ccc(-c2ccc(=O)n(CCNS(=O)(=O)c3cccs3)n2)cc1
 : 2 | 2
- FC(F)(F)c1cnc(NCC2CCC3(CC2)OCCO3)c(Cl)c1
 : 5 | 6
- C=CCOc1cccn2c(N(C)Cc3cccs3)c(C)nc12
 : 26 | 13
- CC(=O)c1c(C)nn(CC(=O)N2Cc3cnc(C(C)(C)C)nc3C2)c1C
 : 5 | 5
- CCOc1cccc(NC(=O)C2CC(=O)N(C)C(=Nc3ccccc3OC)S2)c1 (centres undefined)
 : 0 | -2
- Cc1cc(C)n2c(NCc3ccccc3)c(-c3ccc(F)cc3)nc2c1
 : 4 | 8
- COc1ccc(/C=C2/C(=O)N(c3ccc(Cl)c(Cl)c3)N=C2C)cc1Br
 : 6 | 13
- CCn1c(CO)cnc1SCc1cc(C)ccc1C
 : 9 | 6
- COC(=O)Cc1c(-c2ccccc2)c2cc(Br)ccc2[nH]c1=O
 : -1 | -4
- Cc1c(C(=O)N2CCN(C(c3ccccc3)c3ccccc3)CC2)cc(-c2ccc(F)cc2)n1-c1ccccc1Cl
 : -1 | 7
- CNc1nc(N2CC(c3ccncc3)C2)nc2c1CCC2
 : 13 | 11
- NC(=O)c1cnn2c1NC(c1cccs1)CC2C(F)(F)F (centres undefined)
 : 2 | -2
- O=C(Cn1ccnc1-c1ccnc(N2CCSCC2)c1)NCc1ccc(F)cc1
 : -9 | -9
- c1ccc(-c2cc(NC3CCCC3)nc3ccccc23)cc1
 : 7 | 9
- CC1CCN(CCCNC(=O)CCc2nc3sc4c(c3c(=O)[nH]2)CCCC4)CC1
 : 0 | 1
- Cc1cccc(CSc2nnc(CNC(=O)c3ccc([N+](=O)[O-])cc3Cl)n2-c2ccc(Cl)cc2Cl)c1
 : 5 | 6
- CCCCCCCCCCCCCC(=O)Nc1ccc(N2CCCC2)c(C(=O)NCC2CCCO2)c1 (centres undefined)
 : -2 | 0
- O=C(O)c1cccnc1SC1CC(=O)N(c2cccc([N+](=O)[O-])c2)C1=O (centres undefined)
 : -9 | -15
- Cc1nccn1-c1ccccc1CNC1CCc2ccccc2C1 (centres undefined)
 : 5 | 5
- COC(=O)c1cccc(C(=O)NC2CCN(C)C2=O)n1 (centres undefined)
 : 8 | 6
- CCCCOC(=O)c1ccc(NC(=O)c2cc(=O)c(OC)c[nH]2)cc1
 : 2 | -1
- Cc1ccc(NC(=O)CC(=O)NCCN2CCCCC2CO)cc1Cl (centres undefined)
 : 5 | 3
- COC(=O)c1ccc2oc(=O)n(C3CCN(C(=O)/C=C/c4ccc(OC)c(OC)c4Cl)CC3)c2c1
 : 19 | 14
- CCOC(=O)CC1COCCN1Cc1cn(-c2ccccc2)nc1-c1cccc(OC)c1 (centres undefined)
 : 9 | 8
- COc1ccccc1/C=C1/N=C(c2ccc(C)c(C)c2)OC1=O
 : -5 | -8
- CC(C)NC(=O)NC(=O)C(C)SC1=Nc2ccccc2CS1 (centres undefined)
 : -4 | -5
- CCSc1nc(NCC(C)C)c2cnn(CCNC(=O)c3cc4ccccc4o3)c2n1
 : 2 | 2
- CN(Cc1ccc(Br)cc1)C(=O)c1ccc[nH]1
 : 1 | 0
- COc1ccc(NC2CC(=O)N(c3ccc(OC)cc3)C2=O)cc1 (centres undefined)
 : -8 | -11
- CC(=O)NC(Cc1ccccc1F)C(=O)N1CCOC(COCc2ccccc2F)C1 (centres undefined)
 : 28 | 31
- CN(CCOc1ccccc1)C(=O)c1ccc(CC2CCCNC2)cc1 (centres undefined)
 : 3 | 2
- CCOC(=O)C1CCCN(Cc2oc(CO)cc(=O)c2O)C1 (centres undefined)
 : 9 | 11
- N#CC1=C(N)OC2=C(C(=O)CCC2)C12CCCC2
 : 1 | -1
- CCC(NC(=O)CNC)c1nc(C)c(C)s1 (centres undefined)
 : -1 | -9
- Cc1nc2scc(C)n2c(=O)c1NC(=O)C1CCCCC1
 : 29 | 22
- CC1CCc2ccccc2N1CC(=O)Nc1ccc(S(C)(=O)=O)cc1 (centres undefined)
 : 8 | 8
- CCOC(=O)C(CC)n1cnc2c(nnn2-c2ccccc2)c1=O (centres undefined)
 : 10 | 8
- O=C(c1ccccc1Cl)N1CCN(C(c2ccccc2)c2ccc(Br)cc2)CC1 (centres undefined)
 : -7 | 1
- COc1cccc(NC(=O)C(C2CCCC2)N2CCN(C(=O)c3ccc(Cl)cc3)CC2)c1 (centres undefined)
 : 5 | 2
- COCCNC(=O)c1cccc(-c2nc3c(NCC(C)C)nccc3[nH]2)c1
 : -5 | -11
- CCCCCC(=O)N1CCN(c2nccc(-c3cc(OC)c(OC)c(OC)c3)n2)CC1
 : 5 | 1
- O=C1[C@H]2C(c3ccccc3)=NN(c3ccccc3)[C@H]2C(=O)N1c1ccccc1
 : 4 | -2
- O=C(Oc1ccc2ccccc2c1)C(Cc1ccccc1)N1C(=O)C2C3CCC(C3)C2C1=O (centres undefined)
 : 6 | 4
- COc1cccc(-c2cc(C(=O)N3CCN(C/C=C/c4ccccc4)CC3)n(-c3cc(C)ccc3C)n2)c1
 : -3 | 9
- Cc1cccc(-c2nc(N)nc3c2CN(C(=O)CCn2cnnn2)C3C)c1 (centres undefined)
 : 6 | 3
- O=C(COC(=O)C=Cc1ccc(I)o1)NCc1ccco1
 : -2 | -3
- CCCCN(CC(=O)Nc1cc(C(C)(C)C)nn1-c1ccc(OC)cc1)C(=O)Nc1cccc(C(F)(F)F)c1
 : 18 | 19
- O=C(c1ccc(C(F)(F)F)cc1F)N1CCN(c2nc3nccc(-c4ccc(Cl)c(Cl)c4)n3n2)CC1
 : 7 | 7
- CCOc1cc(C(=O)N2CCOC(c3ccccc3)C2)ccc1OC (centres undefined)
 : -4 | -7
- OCC#CCSc1ncnn1-c1ccccc1
 : 22 | 19

# Further results.
# Results follow in this order: NPYLR7 ag | NPYLR7 ag max-min
- CCNC(=O)C1(C)CCCN(Cc2nccs2)C1 (centres undefined)
 : 1 | 1
- c1cc(CNc2cc(-c3cc(N4CCCCC4)ncn3)c3cc[nH]c3n2)ccn1
 : 12 | 12
- COc1ccc(C)cc1NC(=O)CCCN1C(=O)NC2(CCCC2)C1=O
 : -8 | 15
- CCOC(=O)c1cc(-c2ccc(N3CCN(C(=O)c4cccc(C#N)c4)CC3)cc2)n(-c2ccc(F)cc2)n1
 : 26 | 12
- CCOC(=O)c1cc(-c2cccc(NC(=O)COc3cccc(Cl)c3)c2)n(-c2cccc(C)c2)n1
 : -8 | -5
- COc1cccc(/C=N\NC(=O)CSc2nnc(-c3ccccc3)n2-c2ccccc2)c1OC
 : -5 | -10
- CC(=O)Nc1cnc(-c2ccc3c(c2)CCO3)cn1
 : 3 | 1
- CC(=O)Nc1ccc(S(=O)(=O)Oc2cccc(CN(C(=O)c3cccs3)C(C)C)c2)cc1
 : -29 | -14
- CCn1c(=O)c(C(=O)Nc2nc3ccccc3s2)c(O)c2ccccc21
 : -4 | 2
- O=C(Cc1cccc2ccccc12)NN=Cc1ccc(O)cc1O
 : 2 | -2
- COC(=O)CCCC(=O)N1CCN(c2nccc(-c3ccc(N4CCOCC4)cc3)n2)CC1
 : 21 | 25
- O=C(Nc1ccccc1)Nc1ccc(N2CCCC2)c(C(=O)NCc2ccc(F)cc2)c1
 : 4 | 4
- COc1cc2c(cc1CN1CCN3C(=O)CNC(=O)C3C1)OCCCO2 (centres undefined)
 : -5 | -4
- O=C(O)c1cc(-c2ccc(Cl)c(Cl)c2)ns1
 : 7 | 5
- CC(C)(C)c1ccc(NC(=O)NCc2nnnn2-c2ccccc2)cc1
 : 17 | 16
- COc1cc(-c2cnn(C)c2)nc(N)n1
 : -7 | -7
- CCOC(=O)c1nn(-c2ccccc2C)c(=O)cc1OS(=O)(=O)c1ccc(CC)cc1
 : -4 | -1
- O=C(CN(c1cccc([N+](=O)[O-])c1)S(=O)(=O)c1ccccc1)NCCSCc1ccccc1Cl
 : -8 | 2
- O=C(COc1ccc(Br)cc1)Nc1cn[nH]c1
 : -1 | 1
- CCc1nnc(NC(=O)c2ccc(-c3ccc(F)cc3)o2)s1
 : 1 | 8

# Another view of part of the listing above:
structure: O=C(O)c1cc(-c2ccc(Cl)c(Cl)c2)ns1
  NPYLR7 ag = 7 | NPYLR7 ag max-min = 5

structure: CC(C)(C)c1ccc(NC(=O)NCc2nnnn2-c2ccccc2)cc1
  NPYLR7 ag = 17 | NPYLR7 ag max-min = 16

structure: COc1cc(-c2cnn(C)c2)nc(N)n1
  NPYLR7 ag = -7 | NPYLR7 ag max-min = -7

structure: CCOC(=O)c1nn(-c2ccccc2C)c(=O)cc1OS(=O)(=O)c1ccc(CC)cc1
  NPYLR7 ag = -4 | NPYLR7 ag max-min = -1

# Later entries.
# Results follow in this order: NPYLR7 ag | NPYLR7 ag max-min
- O=C(c1cccc(Br)c1)N1CCC2(CC1)SCCN2C(=O)c1ccc(Br)cc1
 : -5 | 6
- Cc1cc(C(=O)N2C[C@H]3CC=CC[C@H]3C2)nc(C)n1
 : -1 | 0
- Cc1cn(CCNC(=O)CCSc2ccc3c(c2)OCCO3)nn1
 : 9 | 7
- CCC(=O)N1CCC(n2c(=O)oc3ccc(Cl)cc32)CC1
 : 3 | 1
- CCCCC(=O)N1c2ccccc2N=C2CC(C)(C)CC(=O)C2C1c1ccc(OCC)cc1 (centres undefined)
 : -10 | -19
- Cc1ccc(C)c(NC(=O)CCCn2nc(-c3ccc(F)cc3)ccc2=O)c1
 : 2 | 3
- Cc1ccc(C(=O)Nc2c(C)nc3ccccn3c2=O)cc1[N+](=O)[O-]
 : 5 | 4
- O=C(CN1C(=O)c2ccccc2C1=O)N1CCCC(Nc2cccc(F)c2)C1 (centres undefined)
 : 10 | 6
- Cc1ccc(C(C)C)c(OCC(=O)NNC(=O)CCN2C(=O)c3ccccc3C2=O)c1
 : 4 | 0
- Cc1cc(NCc2ccc(N3CCOCC3)nc2)nc(C)n1
 : 0 | 0

# The list goes on:
structure | NPYLR7 ag | NPYLR7 ag max-min
CCn1c(CN2CCC(C)CC2)nc2c1c(=O)n(C)c(=O)n2C | -3 | -5
CC1(C)CC(N2CN(C3CCCCC3)CC2=O)CC(C)(C)N1 | 6 | 3
COC(=O)c1cc2c(=O)n(-c3ccccc3OC)ccc2nc1C | -4 | -5
COc1ccc2nc(-c3cccc(NC(=O)Nc4cc(C)ccc4OC)c3)cn2n1 | -1 | -2
Cc1cc(C)c(C)c(S(=O)(=O)N2c3cccc4cccc(c34)S2(=O)=O)c1C | 4 | 1
CC(C)(C)C1(OCSC#N)C(=O)N=CN=CN1Cc1ccccc1 (centres undefined) | 3 | 10
CCOC(=O)N1CCN(c2nc(Nc3ccc(F)cc3)c3nccnc3n2)CC1 | 17 | 17
O=S(=O)(CC1CCCCO1)Nc1cc(F)ccc1-n1cccn1 (centres undefined) | -1 | -3
CCC1=NOC(CNC(=O)c2ccc(Cn3nc(C)cc3C)cc2)C1 (centres undefined) | 2 | -2
COCCOC(=O)c1c(C)nc2sc3c(c2c1-c1ccco1)CCC(C)C3 (centres undefined) | -2 | 7
CCCCC(CC)C(=O)NC(C)c1nnc(SCc2ccccc2C)n1-c1ccc([N+](=O)[O-])cc1 (centres undefined) | -6 | 3
c1ccc(C[n+]2ccc(-c3nc4ccccc4s3)cc2)cc1 | 0 | 0
N#Cc1nc(-c2ccc(Cl)cc2)oc1N1CCCC1 | 10 | 7
O=C(c1csc(Cc2ccccc2)n1)N1CCC2(CCCNC2)C1 (centres undefined) | -5 | -5
CC(=O)Nc1nc2ccc(NC(=O)c3nn(C)cc3[N+](=O)[O-])cc2s1 | -20 | -22
Cc1cccc(S(=O)(=O)N2CCN(C(=O)c3cnn(C)c3C)CC2)c1 | -2 | -2
Nc1ncc(C(=O)N2CCC(N3CCCC3=O)CC2)c(-c2ccccc2)n1 | 19 | 5
Cc1c(CN2CCCC(C(=O)Nc3cccc(-n4cccn4)c3)C2)[nH]c2ccccc12 (centres undefined) | 10 | 5
N#CC(=Cc1c(F)c(F)c(F)c(F)c1F)c1ccccn1 | 99* | 80*
COc1cccc(-c2nn[nH]n2)c1O | 7 | 3
CC1(Cc2ccc(S(C)(=O)=O)cc2)C(=O)Nc2cc(-c3ccc(F)cc3F)ccc21 (centres undefined) | 12 | 10
CCCc1nnc(NC(=O)CN2CCCC2Cn2cccn2)s1 (centres undefined) | 5 | 1
COc1ccc(-n2nc(C(=O)NCc3cccnc3)c(=O)n(Cc3cccc(OC)c3)c2=O)cc1 | 12 | 8
NS(=O)(=O)c1ccc(CCNC(=O)c2cc(=O)c(OCc3ccccc3)co2)cc1 | 0 | -1
CCCn1ccnc1CN1CC[C@H](CO)[C@H](O)C1 | 7 | 7
NC(=O)c1c(NC(=O)C2C3C=CC(C3)C2C(=O)O)sc2c1CCCCCC2 (centres undefined) | 5 | 5
O=C(CN1CCCC1CN1CCCC1CO)Nc1ccccc1 (centres undefined) | 3 | 2
Cc1nn(-c2ccccc2)c(C)c1CN(C)C(=O)C1CCN(S(=O)(=O)c2ccccc2F)CC1 | -2 | -3
CCc1csc(CNC(=O)c2ccc(NCc3cnn(C)c3)nc2)n1 | 1 | -3
CC(C)C1C(=O)NCCN1C(=O)Nc1cc(F)c(F)cc1Cl (centres undefined) | 10 | 8
CCC(CC)N(CCOC)S(=O)(=O)c1cccc2nsnc12 | -4 | -5
C=Cc1ccc(CN(C2=NC3CS(=O)(=O)CC3S2)c2ccc(OCC)cc2)cc1 (centres undefined) | 7 | 5
O=C1CC(c2ccco2)CC(O)=C1C=NCCN1CCNCC1 (centres undefined) | 3 | 2
O=c1nc(SCc2ccc(F)cc2)c2c(n1CC1CCCO1)CCC2 (centres undefined) | -6 | -12
Cc1cc(-c2cc(C(=O)O)c3cnn(C(C)C)c3n2)c(C)s1 | 2 | 0

# An excerpt of these results, as labelled records:
> CCC(CC)N(CCOC)S(=O)(=O)c1cccc2nsnc12
  NPYLR7 ag: -4; NPYLR7 ag max-min: -5

> C=Cc1ccc(CN(C2=NC3CS(=O)(=O)CC3S2)c2ccc(OCC)cc2)cc1 (centres undefined)
  NPYLR7 ag: 7; NPYLR7 ag max-min: 5

> Cc1nn(-c2ccccc2)c(C)c1CN(C)C(=O)C1CCN(S(=O)(=O)c2ccccc2F)CC1
  NPYLR7 ag: -2; NPYLR7 ag max-min: -3

> Cc1cc(-c2cc(C(=O)O)c3cnn(C(C)C)c3n2)c(C)s1
  NPYLR7 ag: 2; NPYLR7 ag max-min: 0
